ID4 SMM – ID4 (human) binding; P47928; small molecule microarray, Flag-ID4 binding, fluorescence F/B; calls only; 31,000 tested, 1.2% active;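 active means spot signal over background at p below 0.07 in all four prints; compounds were printed on slides so no solution concentration is given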;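 further: a binder raises fluorescence above local background on the spot; about 2 pmol printed per array spot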
Target sequence (P47928 whole entry, looked up): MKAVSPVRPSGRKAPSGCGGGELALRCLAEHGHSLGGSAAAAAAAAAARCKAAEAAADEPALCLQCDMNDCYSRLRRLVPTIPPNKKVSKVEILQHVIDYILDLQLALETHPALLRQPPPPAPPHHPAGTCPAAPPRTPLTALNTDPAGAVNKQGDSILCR
Calls only; i = inactive; + = active, no number. This is a subset. The share of hits here may be higher or lower than overall.

SMILES | ID4 SMM
C[C@@H]1CN([C@@H](C)CO)S(=O)(=O)c2ccc(C#CC3(O)CCCC3)cc2O[C@H]1CN(C)C(=O)c1ccncc1 | i
COc1ccc(NC(=O)C(C)NS(=O)(=O)c2ccc(F)cc2)cc1Cl (centres undefined) | i
COc1ccc([N+](=O)[O-])cc1NC(=O)CN(c1ccccc1Br)S(C)(=O)=O | i
O=C1N(CCS(=O)(=O)c2ccccc2)Cc2ccccc2C[C@@]12N=C(c1ccc(OCCCO)cc1)O[C@H]2c1ccccc1 | i
C[C@@H]1CN([C@H](C)CO)C(=O)c2cc(-c3cccc(F)c3)cnc2O[C@@H]1CN(C)C(=O)C1CCOCC1 | i
Cc1ccc(S(=O)(=O)N(C)CC(=O)Nc2ccc(Nc3ccccc3)cc2)cc1 | i
COc1ccc(-n2nc3cc(C)c(NC(=O)COc4ccccc4)cc3n2)cc1 | i
Cc1ccc(C(C)C)c(OCC(=O)Nc2cc(-c3nc4ccccc4o3)ccc2C)c1 | i
Cc1cc(OCC(=O)NCc2ccco2)cc(C)c1Br | i
CC(C)CC#Cc1cnc2c(c1)C(=O)N([C@@H](C)CO)C[C@@H](C)[C@H](CN(C)C(=O)Cc1ccccc1)O2 | i
C[C@@H]1CN([C@H](C)CO)C(=O)c2cc(-c3ccncc3)cnc2O[C@H]1CN(C)Cc1ccc(F)cc1 | i
CCCC#Cc1ccc2c(c1)O[C@@H](CN(C)CCC)[C@@H](C)CN([C@H](C)CO)S2(=O)=O | i
COC(=O)c1ccc(C(=O)OC)c(NC(=O)COc2ccc(C)cc2)c1 | i
O=C(C[C@H]1C[C@@H]2c3cc(NS(=O)(=O)c4ccccc4)ccc3O[C@@H]2[C@@H](CO)O1)N1CCOCC1 | i
Cn1nnnc1SCC(=O)Nc1ccc(F)cc1 | i
Cc1noc(C)c1NC(=O)N(C)C[C@@H]1Oc2ncc(C#CCN(C)C)cc2C(=O)N([C@@H](C)CO)C[C@@H]1C | i
CC1=NN(c2cc(Cl)cc(Cl)c2)C(=O)CC1 | i
O=C(COc1ccccc1)Nc1cccc2nsnc12 | i
CC1(C)Cc2c(sc3c2c(=O)n(-c2cccc(Cl)c2)c2nnc(SCC(=O)Nc4cccc(Cl)c4)n32)CO1 | i
CS(=O)(=O)N(CC(=O)Nc1cccc(Br)c1)c1cc(Cl)c(Cl)cc1Cl | i
COc1cccc(NC(=O)N[C@@H]2C=C[C@@H](CC(=O)N3CCOCC3)O[C@H]2CO)c1 | i
COc1ccc(C)cc1N(CC(=O)Nc1ccccc1-c1ccccc1)S(C)(=O)=O | i
Cc1cc2nc(-c3cccc(NC(=O)COc4ccc(Br)cc4)c3C)oc2cc1C | i
C[C@@H]1CN([C@@H](C)CO)C(=O)c2cc(C#CC3CCCC3)cnc2O[C@@H]1CN(C)C(=O)C1CCC1 | i
C[C@@H]1CN([C@@H](C)CO)C(=O)c2cc(C3=CCCC3)cnc2O[C@@H]1CN(C)Cc1cccc(F)c1 | i
O=C1c2ccccc2-c2c1cnc1c(-c3ccccc3)cnn21 | i
C=CCNC(=O)[C@@H]1[C@H]2C(=O)O[C@H](c3ccccc3)[C@H](c3ccccc3)N2[C@H](c2ccccc2OCCO)[C@@]12C(=O)Nc1ccc(C#CCNC(N)=O)cc12 | i
COc1ccc([N+](=O)[O-])cc1NC(=O)COc1ccc(Cl)cc1Br | i
C/C=C/c1ccc2c(c1)O[C@H](CN(C)Cc1ccccc1)[C@@H](C)CN([C@@H](C)CO)S2(=O)=O | i
Cc1cc(C)c(OCC(=O)Nc2cccc(NC(=O)c3ccco3)c2)c(Br)c1 | i
C[C@H]1CN([C@@H](C)CO)C(=O)c2cc(C#CCC3CCCC3)cnc2O[C@@H]1CN(C)C(=O)CC1CC1 | i
CC(C)CC#Cc1ccc2c(c1)O[C@H](CN(C)C(=O)C1CCOCC1)[C@H](C)CN([C@@H](C)CO)S2(=O)=O | i
Cc1cccc(OCC(O)Cn2cnc3ccccc32)c1C (centres undefined) | i
O=C(CCN1C(=O)c2ccccc2C1=O)Nc1ccc(NC(=O)c2ccco2)cc1 | i
CC(=O)Nc1ccc(-n2c(CCC(=O)O)ccc2-c2ccc(C)cc2)cc1 | +
C[C@H](CO)N1C[C@H](C)[C@H](CN(C)Cc2cccc(C(F)(F)F)c2)OCc2cn(nn2)CCCC1=O | i
C[C@@H]1CN([C@H](C)CO)C(=O)c2cc(NC(=O)C3CCCCC3)ccc2O[C@H]1CN(C)C | i
CCOc1ccc(NC(=O)C(C)Sc2nnnn2C)cc1 (centres undefined) | i
O=C(Cn1nnc2ccccc21)c1ccc([N+](=O)[O-])cc1 | i
Cc1ccc(-c2cnc3c(c2)C(=O)N([C@H](C)CO)C[C@@H](C)[C@@H](CN(C)Cc2ccccc2F)O3)cc1 | i
C[C@@H]1CN([C@H](C)CO)S(=O)(=O)c2ccc(C3=CCCC3)cc2O[C@@H]1CN(C)CC1CCCCC1 | i
CC(C)C#Cc1cnc2c(c1)C(=O)N([C@@H](C)CO)C[C@@H](C)[C@H](CN(C)C(=O)CC1CC1)O2 | i
COc1ccc(CNC(=O)N(C)C[C@@H]2OCc3ccccc3-c3c(n(C)c4ccccc34)C(=O)N([C@H](C)CO)C[C@H]2C)cc1 | i
CC(C)NC(=O)N(C)C[C@@H]1Oc2cc(C#CC(C)(C)O)ccc2S(=O)(=O)N([C@@H](C)CO)C[C@H]1C | i
COCCOC(=O)N1C(=O)[C@@]2(c3cc(C#Cc4ccc(OC)cc4)ccc31)[C@H](C(=O)N1CCN(c3ncccn3)CC1)[C@H]1C(=O)O[C@H](c3ccccc3)[C@H](c3ccccc3)N1[C@@H]2c1ccccc1OCCO | i
COc1cccc(S(=O)(=O)Nc2ccc3c(c2)[C@H]2C[C@H](CC(=O)NCc4ccc(Cl)cc4)O[C@H](CO)[C@H]2O3)c1 | i
COc1ccc(-[n+]2cc(=O)o[nH]2)cc1 | i
Cc1nnc(SCC(=O)Nc2ccc(Cl)cc2Cl)[nH]c1=O | i
O=C(CSc1nc(-c2ccccc2)cc(C(F)(F)F)n1)c1ccccc1 | i
C[C@@H]1CN([C@H](C)CO)C(=O)c2cc(C3=CCCC3)cnc2O[C@@H]1CN(C)S(=O)(=O)c1cn(C)cn1 | i
COCC#Cc1ccc2c(c1)O[C@@H](CN(C)C)[C@H](C)CN([C@H](C)CO)S2(=O)=O | i
C=C1C(=O)O[C@H]2C[C@H](C)[C@@H]3CC(=O)C(C)=C3C[C@H]12 | i
CCC(=O)N[C@H]1C=C[C@H](CC(=O)OC)O[C@@H]1CO | i
C[C@@H]1CN([C@H](C)CO)C(=O)Cc2cc(NC(=O)C3CC3)ccc2O[C@@H]1CN(C)Cc1ccccc1 | i
O=C(NCC[C@@H]1CC[C@H](NC(=O)C2CC2)[C@H](CO)O1)c1ccc(F)cc1 | i
O=C(CSc1nnc(-c2ccccc2F)n1-c1ccccc1)Nc1ccccc1C(F)(F)F | i
O=C(CSc1nc2ccccc2c(=O)n1-c1ccccc1)Nc1cccc([N+](=O)[O-])c1 | i
Cn1c(SCC(=O)Nc2ccc(C(=O)O)cc2)nnc1-c1ccc(Br)cc1 | i
C[C@@H]1CN([C@H](C)CO)S(=O)(=O)c2ccc(C#CC3CC3)cc2O[C@H]1CN(C)CC1CCOCC1 | i
COc1cccc(NC(=O)Cn2cnc3c(sc4nc5c(cc43)COC(C)(C)C5)c2=O)c1 | i

Additional entries
SMILES | ID4 SMM
C[C@H](CO)N1C[C@H](C)[C@H](CN(C)Cc2cccc(F)c2)Oc2ncc(C3=CCCC3)cc2C1=O | i
CNC[C@@H]1Oc2cc(C#Cc3ccccc3F)ccc2S(=O)(=O)N([C@H](C)CO)C[C@H]1C | i
CCc1ccccc1OCC(=O)Nc1sc2c(c1C(N)=O)CCCC2 | i
CCCC#Cc1ccc2c(c1)O[C@H](CN(C)Cc1ccccc1)[C@@H](C)CN([C@@H](C)CO)S2(=O)=O | i
O=C(C[C@@H]1C=C[C@@H](NC(=O)Nc2cc(F)ccc2F)[C@H](CO)O1)NCCCN1CCOCC1 | i
COc1ccc(C)cc1N(CC(=O)Nc1ccc(Br)cc1F)S(C)(=O)=O | i
Cc1cc(NS(=O)(=O)c2ccc(NC(=O)c3csc4ccccc34)cc2)no1 | i
COc1ccc(OC)c(NC(=O)c2ccccc2N(C)S(=O)(=O)c2ccc(C)cc2)c1 | i
Cc1cc2nc(-c3ccc(C)c(NC(=O)COc4ccc([N+](=O)[O-])cc4)c3)oc2cc1C | i
O=C(CSc1nnc(-c2cccnc2)n1-c1ccccc1)Nc1ccc2c(c1)OCCO2 | i
COC(=O)/C(=C1\OC(=O)C(c2ccccc2)C1=O)c1ccccc1 (centres undefined) | i
COc1ccc(Cl)cc1NC(=O)CSc1nc2ccc(NC(=O)c3ccc(C)cc3)cc2s1 | i
COc1ccc(C)cc1NC(=O)CN(c1cccc2ccccc12)S(C)(=O)=O | i
Cc1c(CCC(=O)O)c(=O)oc2cc(OCc3ccccc3F)ccc12 | i
C[C@@H]1CN([C@@H](C)CO)C(=O)c2cc(C#CC3(O)CCCC3)cnc2O[C@H]1CN(C)C(=O)Cc1cccnc1 | i
c1coc(Cn2c(SCc3nc4ccccc4[nH]3)nnc2-c2ccco2)c1 | i
CCC(=O)Nc1ccc(Cl)c(NC(=O)COc2ccc(Br)cc2)c1 | i
Cc1cccc(-n2c(SCCC(=O)O)nnc2-c2cccs2)c1C | i
CCCNC(=O)C[C@H]1C[C@H]2c3cc(NS(=O)(=O)c4cccc(OC)c4)ccc3O[C@H]2[C@@H](CO)O1 | i
COC(=O)[C@]1(CCS(=O)(=O)c2ccccc2)N=C(c2ccc(OCCCO)cc2)O[C@@H]1c1ccccc1CN=[N+]=[N-] | i
C[C@H]1CN([C@@H](C)CO)C(=O)c2cc(-c3cccc(F)c3)cnc2O[C@@H]1CN(C)C(=O)C1CCOCC1 | i
CCc1nc(SCC(=O)Nc2ccc(C(C)=O)cc2)n[nH]1 | i
O=C(NCCNS(=O)(=O)c1ccccc1)c1ccc([N+](=O)[O-])cc1 | i
COC(=O)c1cc(OC)c(OC)cc1NC(=O)CN1C(=O)c2ccccc2C1=O | i
Cc1ccc(S(=O)(=O)N[C@@H]2C=C[C@H](CC(=O)O)O[C@H]2CO)cc1 | i
COc1cccc2c(C)nc(Nc3nc(CSc4nnc(C)s4)cc(=O)[nH]3)nc12 | i
Cc1cc(C)c(C)c(OCC(=O)NCCN2CCOCC2)c1 | i
CC(=O)N[C@@H]1CC[C@@H](CC(=O)NCc2ccc(Cl)cc2)O[C@@H]1CO | i
O=C(C[C@@H]1C=C[C@H](NC(=O)c2ccccc2)[C@@H](CO)O1)Nc1ccc(-c2ccccc2)cc1 | i
Cc1ccc2nc(-c3ccc(NC(=O)CS(=O)(=O)Cc4ccccc4)cc3)sc2c1 | i
Cc1ccc(NC(=O)CSc2n[nH]c(-c3ccco3)n2)cc1 | i
CCn1c(SCC(=O)c2ccc(OC)cc2)nnc1-c1ccc(Cl)cc1Cl | i
C[C@H]1CN([C@@H](C)CO)S(=O)(=O)c2ccc(C3=CCCC3)cc2O[C@H]1CN(C)Cc1cccc(C(=O)O)c1 | i
C[C@@H]1CN([C@H](C)CO)S(=O)(=O)c2ccc(C3=CCCC3)cc2O[C@H]1CN(C)Cc1cccc(C(=O)O)c1 | i
O=C(O)CN(c1cc(Cl)cc(Cl)c1)S(=O)(=O)c1ccccc1 | i
C[C@@H]1CN([C@H](C)CO)C(=O)c2cc(Br)cnc2O[C@@H]1CN(C)CC1CCOCC1 | i
CCOc1cc(S(=O)(=O)NC2CC(C)(C)NC(C)(C)C2)ccc1F | i
CCNC(=O)c1c(NC(=O)COc2cccc3ccccc23)sc2c1CCCC2 | i
Cc1ccc(NC(=O)CSc2ncccn2)cc1Cl | i
C[C@H]1CN([C@@H](C)CO)C(=O)c2cc(-c3ccccc3F)cnc2O[C@@H]1CN(C)C(=O)CN(C)C | i
COCC#Cc1cnc2c(c1)C(=O)N([C@@H](C)CO)C[C@@H](C)[C@@H](CN(C)S(=O)(=O)c1cn(C)cn1)O2 | i
CC(=O)N(C)C[C@H]1Oc2ncc(/C=C/c3ccccc3)cc2C(=O)N([C@@H](C)CO)C[C@@H]1C | i
C[C@@H]1CN([C@H](C)CO)C(=O)Cc2cc(N(C)C)ccc2O[C@@H]1CN(C)C(=O)Nc1ccc(F)cc1 | i
O=C(C[C@@H]1C=C[C@@H](NC(=O)Nc2cccc(F)c2)[C@H](CO)O1)NCC1CCCCC1 | i
CCCC#Cc1cnc2c(c1)C(=O)N([C@H](C)CO)C[C@@H](C)[C@@H](CN(C)C(=O)c1ccccc1)O2 | i
CCC(=O)N(C)C[C@@H]1Oc2ncc(-c3ccccc3F)cc2C(=O)N([C@H](C)CO)C[C@@H]1C | i
CC(=O)Nc1ccc(NC(=O)CSC2=NC(c3ccccc3)CC(=O)N2)cc1 (centres undefined) | i
COCc1nc2ccccc2n1CCOc1ccc(Cl)cc1Cl | i

Grouped by structure, the compounds so far with a COOH group.
SMILES | ID4 SMM
CC(=O)Nc1ccc(-n2c(CCC(=O)O)ccc2-c2ccc(C)cc2)cc1 | +
Cn1c(SCC(=O)Nc2ccc(C(=O)O)cc2)nnc1-c1ccc(Br)cc1 | i
Cc1c(CCC(=O)O)c(=O)oc2cc(OCc3ccccc3F)ccc12 | i
Cc1cccc(-n2c(SCCC(=O)O)nnc2-c2cccs2)c1C | i
Cc1ccc(S(=O)(=O)N[C@@H]2C=C[C@H](CC(=O)O)O[C@H]2CO)cc1 | i
C[C@H]1CN([C@@H](C)CO)S(=O)(=O)c2ccc(C3=CCCC3)cc2O[C@H]1CN(C)Cc1cccc(C(=O)O)c1 | i
C[C@@H]1CN([C@H](C)CO)S(=O)(=O)c2ccc(C3=CCCC3)cc2O[C@H]1CN(C)Cc1cccc(C(=O)O)c1 | i
O=C(O)CN(c1cc(Cl)cc(Cl)c1)S(=O)(=O)c1ccccc1 | i

In another format: 3 of the compounds above
canonical_smiles	ID4 SMM
CCOc1cc(S(=O)(=O)NC2CC(C)(C)NC(C)(C)C2)ccc1F	i
CCNC(=O)c1c(NC(=O)COc2cccc3ccccc23)sc2c1CCCC2	i
Cc1ccc(NC(=O)CSc2ncccn2)cc1Cl	i
